CSC inhib = cancer stem cell viability inhibitors, primary screen, luminescence | inhibition, % at 7.5 µM | cancer stem cell-like cells viability | hit rate 1.1% among 300,000;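 active = mean at 75% or more and at least half the replicates too; tested in HMLE shEcad cells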;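 also: 0% = median of negative and 100% = median of positive control wells; the first replicate is given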
eIF4H inh = human eIF4H binding inhibitors, primary screen, translation initiation inhibitor project, biochemical, uHTS, fluorescence polarization | Eukaryotic translation initiation factor 4H (Homo sapiens), Q15056 | eIF4H fluorescence polarization binding assay | hit rate 0.94% among 290,000 | inhibition, % at 35 µM;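 active = 50% or more with normal probe brightness, or confirmed in later tests; about a fifth of its hits are not listed in these tables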;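 also: calls also rest on retests at 20 µM and on dose response follow-up; 0% = protein and probe with vehicle and 100% = probe without protein; strong numbers were not always called active; many hits fall short of the cut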
Rce1 inh = yeast Rce1p protease inhibitors, primary screen, biochemical, fluorescence, cell-free homogeneous; CAAX prenyl protease 2 (Saccharomyces cerevisiae (strain ATCC 204508 / S288c)), Q03530; yeast membranes, quenched prenylated peptide cleavage fluorescence; calls only; hit rate 0.27% among 290,000;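 active = fall in fluorescence gain of 50% or more versus controls, with final raw signal at or below 3038400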;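 also: plate controls were neutral control wells for no effect and wells lacking membranes for full effect; tested at 10 µM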
Target sequence (Q03530 whole entry, looked up): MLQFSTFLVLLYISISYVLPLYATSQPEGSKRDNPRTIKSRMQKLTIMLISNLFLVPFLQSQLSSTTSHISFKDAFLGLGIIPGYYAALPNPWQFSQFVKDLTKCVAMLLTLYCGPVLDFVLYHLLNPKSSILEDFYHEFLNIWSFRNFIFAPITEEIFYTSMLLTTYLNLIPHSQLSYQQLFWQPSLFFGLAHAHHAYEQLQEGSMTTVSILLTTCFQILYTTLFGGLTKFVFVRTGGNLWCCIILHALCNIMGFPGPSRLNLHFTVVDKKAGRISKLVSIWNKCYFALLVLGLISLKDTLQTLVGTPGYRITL
PABP polyA inh = PABP poly(A) RNA binding inhibitors, primary screen, biochemical, fluorescence polarization, uHTS | hit rate 1% among 290,000 | inhibition, % at 35 µM | Polyadenylate-binding protein 1 (Homo sapiens), P11940;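 active = 50% or more with normal probe brightness, or confirmed in later tests; about a fifth of its hits are not listed in these tables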;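 also: calls also rest on retests at 20 µM and on dose response follow-up; controls were probe without protein and protein plus probe with vehicle; some compounds called inactive have numbers as strong as hits; many hits fall short of the cut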
Target sequence (P11940 whole entry, looked up): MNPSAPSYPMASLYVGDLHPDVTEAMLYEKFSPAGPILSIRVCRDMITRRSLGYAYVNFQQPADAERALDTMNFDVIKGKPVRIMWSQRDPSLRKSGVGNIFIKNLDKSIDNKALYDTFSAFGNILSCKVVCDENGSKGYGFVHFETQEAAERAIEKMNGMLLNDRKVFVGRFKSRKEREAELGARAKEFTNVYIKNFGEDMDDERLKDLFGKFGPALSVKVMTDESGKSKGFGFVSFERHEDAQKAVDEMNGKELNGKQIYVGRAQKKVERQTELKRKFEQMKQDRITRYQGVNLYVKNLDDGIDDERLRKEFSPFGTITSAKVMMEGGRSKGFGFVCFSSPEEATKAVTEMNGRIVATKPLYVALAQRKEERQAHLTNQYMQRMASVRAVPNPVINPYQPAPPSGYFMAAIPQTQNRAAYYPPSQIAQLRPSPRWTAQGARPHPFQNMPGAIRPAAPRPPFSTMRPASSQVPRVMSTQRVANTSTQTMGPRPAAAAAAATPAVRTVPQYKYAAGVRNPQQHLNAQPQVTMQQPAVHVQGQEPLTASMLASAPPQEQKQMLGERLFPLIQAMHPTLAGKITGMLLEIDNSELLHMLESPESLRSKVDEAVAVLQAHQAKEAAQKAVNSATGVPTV
Yeast UUG start = modulators of yeast start codon fidelity, primary screen, whole organism, S. cerevisiae, single point, plate reader; S. cerevisiae UUG-firefly luciferase reporter, luminescence/redox ratio; activity score, % at 18.7 µM; hit rate 0.13% among 350,000;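 active = replicate mean at a twofold rise or more, about +100% in these data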;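 also: firefly luciferase made from a UUG start codon reports start codon fidelity; reporter light over untreated wells divided by growth signal over untreated wells; some hits fall short of that in this replicate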
MT1-MMP act inh = blockers of MT1-MMP proenzyme processing, primary screen, HT1080 RFP-PRO-GFP cells, GFP/RFP fluorescence; Matrix metalloproteinase-14 (Homo sapiens), P50281; GFP/RFP ratio fluorescence, overnight; percent of plate control window, DMSO zero; GFP/RFP ratio change, % at 20 µM; hit rate 0.061% among 360,000;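 active = GFP/RFP ratio change of at least 30% with cell ATP level not reduced by more than half and red fluorescence within 50% of control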; also: strong numbers were not always called active
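Compound: 20 µM single dose, 1% DMSO / System: HT1080 RFP-PRO-GFP cells / Controls: DMSO and RFP-L50D-GFP cell wells / Read-out basis: GFP/RFP fluorescence ratio / Schedule: overnight compound exposure at 37 °C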
HIV Env fusion = inhibitors of HIV-1 Env-driven cell-cell fusion, primary screen, HeLa-JRFL effector, CEM21 target cells, luciferase. inhibition, % at 12.3 µM. hit rate 1.1% among 360,000;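 active = mean replicate inhibition score of at least 50 and every replicate individually at or above 50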;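 also: 0% = plate neutral controls and 100% = maraviroc near 300 nM; one replicate is shown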
MT1-MMP act inh RFP = further read-out of MT1-MMP act inh, marked with its call; RFP signal change, %; measured here: RFP expression control read;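 0 = vehicle wells; hits needed this value within 50% of zero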
* hit, by the source's call; i = inactive; x = not tested or not shown.

SMILES	CSC inhib	eIF4H inh	Rce1 inh	PABP polyA inh	Yeast UUG start	MT1-MMP act inh	MT1-MMP act inh RFP	HIV Env fusion
O=C(c1ccc(S(=O)(=O)N2CCCCC2)cc1)N1CCN(Cc2ccc3c(c2)OCO3)CC1	x	-2.1	i	-4.1	-18.3	-0.5	-11.0	x
CCOC(=O)c1c(-c2ccc(OC)cc2)csc1/N=C/N(C)C	10.1	-5.2	i	-2.2	x	2.3	4.0	29.0
CC(C)N(C(=O)Cn1c(SCC(=O)NCc2ccc3c(c2)OCO3)nc2ccccc21)C(C)C	-6.9	-5.9	i	0.4	-3.8	0.2	-3.4	x
CC1CCCN(C(=O)COC(=O)CSc2ccc(C(N)=O)cc2[N+](=O)[O-])C1 (stereo not given)	-3.8	x	x	x	x	2.2	-0.4	3.0
CN1CCN(C2=C(NS(=O)(=O)c3ccccc3)C(=O)c3ccccc3C2=O)CC1	1.8	1.8	i	5.4	x	1.8	0.7	x
COc1cccc(C(=O)Oc2c(Br)cc(Br)cc2/C=N/NC(=O)c2cc(C)[nH]n2)c1	56.1	-6.0	x	-4.3	x	-8.5	-5.7	44.8
Cc1ccnc(NC(=S)NC(=O)c2cncc(Br)c2)c1	16.1	-2.2	i	5.7	x	1.1	0.3	-10.7
COc1ccc(C2C(C(=O)O)CC(=O)N2c2ccc(OC)cc2)cc1 (stereo not given)	-0.7	-6.8	i	-6.3	4.4	2.5	3.6	-41.8
COc1ccc(-c2noc(N3CCC(C(=O)Nc4cc(OC)ccc4OC)CC3)n2)cc1	-4.9	-4.0	i	-0.1	1.2	-8.4	-13.6	17.5
O=C(O)COc1ccc(C=C2SC(=S)N(c3ccccc3)C2=O)cc1	x	x	x	x	-0.9	0.1	0.1	31.4
Clc1ccc(CN2CCSCC2)cc1Cl	-9.0	1.2	i	6.5	-4.3	-1.8	0.6	-15.7
CCC(C)NC(=O)C1CCN(S(=O)(=O)c2ccc(Br)s2)CC1 (stereo not given)	6.3	-9.9	i	12.7	x	0.6	-0.2	-1.6
CCOC(=O)c1cnc2c(-c3ccc(Cl)cc3)c(C)nn2c1N	0.0	-4.9	x	0.9	-16.7	-11.4	-5.0	x
Nc1cc(=O)[nH]c(SCC(=O)Nc2ccc(N3CCCCC3)cc2)n1	-14.0	x	x	x	-15.1	8.0	0.6	x
Cc1cc(OCC(F)(F)C(F)(F)C(F)(F)C(F)F)nc(N)n1	-0.5	0.1	i	1.8	-16.9	3.0	2.8	-54.9
CC(=O)NC(C)(c1ccccc1)c1nc(-c2cnc3ccccc3c2)cs1 (stereo not given)	x	x	x	x	-15.6	0.5	0.4	-5.3
O=C(c1ccc2nc(Cc3ccccc3F)oc2c1)N1CCCC1	2.1	-1.5	i	-8.6	-2.7	-0.9	-1.8	-43.5
CCOC(=O)N1CCc2c(sc3c2c(=O)n(-c2ccc(CC)cc2)c(=O)n3CC(=O)NCC2CCCO2)C1 (stereo not given)	6.2	-8.7	i	10.4	-7.5	8.6	5.2	x
COCCNC(=O)C(c1ccc(Cl)cc1)N(Cc1ccco1)C(=O)CCC(=O)Nc1ccccn1 (stereo not given)	-9.9	21.3	i	-8.2	-18.7	-0.4	4.4	-13.0
COc1ccc(C(=O)O/N=C2\CCS(=O)(=O)c3sccc32)cc1	-8.8	3.7	i	1.0	-19.9	0.9	1.6	13.5
CN(CC(=O)Nc1ccccc1Cl)C(=O)COC(=O)c1ccccc1[N+](=O)[O-]	-12.5	x	i	x	14.0	2.8	-0.1	x
CNc1nc(OC)nc(N(C#N)CN2C(=O)c3ccccc3S2(=O)=O)n1	-11.7	-5.4	i	-6.1	x	-0.8	-1.0	-2.5
Cc1[nH]c(=O)[nH]c(=O)c1S(=O)(=O)N1CCC(C(=O)NC(C)c2ccccc2)CC1 (stereo not given)	-4.2	-4.0	i	-1.0	-5.8	1.7	0.1	13.8
Cc1ccc2nc(CN(C)C(=O)[C@H]3O[C@@H](n4ccc(N)nc4=O)[C@H](O)[C@@H]3O)[nH]c2c1	x	x	x	x	-11.0	-0.1	3.4	-19.6
Nc1nc(SCc2ccccc2)n[nH]1	-8.9	7.7	i	6.6	-19.5	4.5	2.0	-0.4
O=C(Cc1ccccc1F)c1ccc(O)cc1O	-0.5	-11.6	i	4.2	-16.0	0.4	-1.1	-12.6
O=C(NCC(=O)N1CCC2(CC1)NCCc1[nH]cnc12)c1ccc2ccccc2c1	-9.5	x	i	x	-20.6	4.0	8.0	-21.9
O=C(N/N=C/c1cccnc1)c1ccc(O)cc1	-15.7	-5.1	i	-10.6	-23.4	3.3	3.9	-7.1
Cc1ccc(CNc2nc3cc(-c4ccccc4)sc3c(=O)n2C)c(C)c1	x	x	x	x	0.1	-3.4	-25.6	21.5
CC(C)(C)C(=O)Nc1nnc(Cc2ccccc2)s1	-3.5	-1.0	i	-1.0	-8.9	4.0	1.9	-121.9
CCNC(=S)N1CCN(c2nc(-c3ccc(F)cc3)cs2)CC1	11.9	-4.4	i	-6.1	-14.4	2.9	-9.3	17.3
CCSc1nc(N)c(C#N)c(-c2ccco2)c1C#N	-7.7	17.1	i	0.6	7.9	3.3	-0.5	x
CC(=O)c1sccc1NC(=O)CC(C)(C)CC(=O)O	-7.7	-5.2	i	-4.2	-5.6	2.6	3.3	8.2
Cc1ccc(S(=O)(=O)N[C@H](C(=O)OCC(=O)NC(=O)NCc2ccco2)C(C)C)cc1	7.6	x	x	x	x	3.5	0.1	11.5
Fc1ccccc1/C=N/Nc1ncnc2nc[nH]c12	1.6	-0.4	i	7.0	-20.8	3.7	-1.6	-65.7
N#Cc1ccccc1S(=O)(=O)N1CCN(CC(O)COc2ccccc2F)CC1 (stereo not given)	-7.0	4.1	i	13.3	1.9	2.1	1.8	-2.9
O=C(O)CC/C(=N\NC(=O)c1ccccc1)c1cccs1	10.0	-4.9	i	41.4	-18.6	3.3	6.9	2.6
COc1ccc(-n2cnnc2SCC(=O)N2CCN(S(=O)(=O)c3ccccc3)CC2)cc1	-5.4	2.4	i	6.1	-9.8	0.6	1.7	x
COc1ccc(N2CCN(C(=O)CSc3nnc(CNc4ccccc4)o3)CC2)cc1	17.8	1.0	i	6.0	-8.2	0.9	-0.5	16.7
NS(=O)(=O)c1ccc(N/N=C/c2ccccc2C(=O)O)c([N+](=O)[O-])c1	11.4	-6.2	i	42.1	x	12.3	2.7	1.8
O=C(C[C@H]1C/C=C\C[C@H](NC(=O)OCC2c3ccccc3-c3ccccc32)C(=O)OC[C@H]2CCCN2C1=O)NCCO	4.1	x	x	x	-14.7	2.4	2.5	-13.8
O=C(c1cccc(C(F)(F)F)c1)C1CCCN(C(=O)/C=C/c2cnc[nH]2)C1 (stereo not given)	x	2.7	i	-12.6	2.1	1.3	-1.5	12.7
CCS(=O)(=O)N1Cc2ccccc2CC1C(=O)Nc1ccc(OC)cc1 (stereo not given)	-7.7	6.9	i	-6.6	x	0.6	4.9	-1.2
O=C(Nc1cccc(Cl)c1)c1ccc(Cn2cc(Cl)cn2)cc1	-3.6	-5.9	i	10.6	-0.7	-9.0	-2.9	-31.3
Cc1cc(=O)oc(C)c1C(=O)N1CCN(Cc2ccc3c(c2)OCO3)CC1	-4.1	-5.8	i	-2.4	0.1	-0.1	4.9	x

A second format for two compounds above.
| canonical_smiles | CSC inhib | eIF4H inh | Rce1 inh | PABP polyA inh | Yeast UUG start | MT1-MMP act inh | MT1-MMP act inh RFP | HIV Env fusion |
| --- | --- | --- | --- | --- | --- | --- | --- | --- |
| CCS(=O)(=O)N1Cc2ccccc2CC1C(=O)Nc1ccc(OC)cc1 (stereo not given) | -7.7 | 6.9 | i | -6.6 | x | 0.6 | 4.9 | -1.2 |
| Cc1cc(=O)oc(C)c1C(=O)N1CCN(Cc2ccc3c(c2)OCO3)CC1 | -4.1 | -5.8 | i | -2.4 | 0.1 | -0.1 | 4.9 | x |

Next records follow:
SMILES	CSC inhib	eIF4H inh	Rce1 inh	PABP polyA inh	Yeast UUG start	MT1-MMP act inh	MT1-MMP act inh RFP	HIV Env fusion
O=C(NNC(=O)C1CCN(S(=O)(=O)c2ccccc2)CC1)c1ccccc1O	33.6	-15.5	i	1.2	-13.3	-0.5	1.1	-5.6
N=c1c2c3c(sc2ncn1N)CCCC3	7.9	-6.3	i	-6.7	x	-8.6	-4.9	-1.8
OC(CNCc1ccccc1F)COc1cccc2ccccc12 (stereo not given)	15.9	-4.1	i	-0.4	-2.5	-1.1	0.0	6.2
O=S(=O)(NCc1ccccn1)c1cc(OCC(F)(F)F)ccc1OCC(F)(F)F	-16.1	-1.7	i	11.4	x	3.0	1.5	8.7
COc1ccc(S(=O)(=O)NCCCCOc2ccc(Cl)cc2)cc1	-9.7	25.8	i	38.2	-10.7	5.1	-10.2	12.3
CC1CCCN(S(=O)(=O)c2ccc([N+](=O)[O-])cc2)C1 (stereo not given)	18.1	-11.8	i	-0.8	0.7	0.3	2.6	0.5
CCn1nc(C)cc1C(=O)OCC(=O)c1ccc(Cl)cc1	6.2	0.3	i	1.4	-0.7	1.1	0.5	-9.0
Cc1cc(C)n2nc(C(=O)OCC(=O)N(C)CC(=O)Nc3ccccc3Cl)nc2n1	-1.3	x	x	x	-11.2	-0.4	2.5	-37.5
COc1ccc(CCC(C)NCc2cccc(Br)c2)cc1 (stereo not given)	-10.6	-5.7	i	-3.4	-1.9	-0.3	-1.2	45.6
CCOC(=O)Cn1nc(NC(=O)COc2ccc(F)cc2)cc1C	-3.2	-2.4	i	4.2	-5.6	-1.3	-2.7	-75.3
O=C(Nc1cccc(C(F)(F)F)c1)c1csc(COCCO)n1	x	x	x	x	-16.4	-0.2	-0.1	11.1
Cc1ccc(CNC(=O)CC2(CC3=NS(=O)(=O)c4ccccc4N3)CCCC2)cc1	-7.0	-5.4	i	-4.2	-43.7	-1.2	-9.2	-10.9
COc1cccc(CNC(=O)N[C@@H](CC(C)C)C(=O)O)c1	-12.0	-1.1	i	-3.1	-13.4	2.9	2.9	x
CC(C)C(=O)Nc1nc2cc3c(cc2s1)OCCO3	x	0.4	i	-3.7	x	-3.7	-26.6	-17.3
O=C(CN1CCN(C/C=C/c2ccccc2)CC1)Nc1ccccc1C(=O)NC1CC1	8.6	-5.4	i	-4.6	-6.1	-0.1	1.8	-0.4

Shown with each value named: entries from further up
> O=C(c1ccc2nc(Cc3ccccc3F)oc2c1)N1CCCC1
- CSC inhib: 2.1
- eIF4H inh: -1.5
- Rce1 inh: i
- PABP polyA inh: -8.6
- Yeast UUG start: -2.7
- MT1-MMP act inh: -0.9
- MT1-MMP act inh RFP: -1.8
- HIV Env fusion: -43.5

> Fc1ccccc1/C=N/Nc1ncnc2nc[nH]c12
- CSC inhib: 1.6
- eIF4H inh: -0.4
- Rce1 inh: i
- PABP polyA inh: 7.0
- Yeast UUG start: -20.8
- MT1-MMP act inh: 3.7
- MT1-MMP act inh RFP: -1.6
- HIV Env fusion: -65.7

More entries follow:
SMILES	CSC inhib	eIF4H inh	Rce1 inh	PABP polyA inh	Yeast UUG start	MT1-MMP act inh	MT1-MMP act inh RFP	HIV Env fusion
O=Cc1s/c(=N\S(=O)(=O)c2ccccc2)n(CCCCl)c1Cl	x	-11.6	i	1.9	x	11.9	4.7	-103.1
Cc1nn(CC(=O)N2CCCCC2)c(=O)c2nn(-c3ccccc3)c(C)c12	11.0	-9.9	i	-3.7	-27.3	7.4	1.2	-1.6
O=C(Nc1ccccc1Cl)c1ccc(COc2ccc3c(c2)CCC3)cc1	0.4	-1.9	i	10.6	-12.0	3.0	1.0	-26.9
COc1ccc(OC)c(C2C(C(=O)c3cccs3)=C(O)C(=O)N2c2cc(C)on2)c1 (stereo not given)	-5.8	16.0	i	2.5	6.0	0.3	0.5	-56.6

Screens: PubChem BioAssay, several laboratories

An excerpt. The share of hits here may be higher or lower than overall.
